MT1-MMP act inh: MT1-MMP (human) activation inhibition; P50281; HT1080 RFP-PRO-GFP cells, GFP/RFP ratio fluorescence, overnight; percent of plate control window, DMSO zero; GFP/RFP ratio change, % at 20 µM; 360,000 tested, 0.061% active; AID 651647;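 active = GFP/RFP ratio change of at least 30% with cell ATP level not reduced by more than half and red fluorescence within 50% of control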; note: strong numbers were not always called active
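Material: RFP-PRO-GFP reporter HT1080 cells. Dosing: single-point 20 µM compound, 1% DMSO. Controls: DMSO and RFP-L50D-GFP cell wells. Timing: cells overnight before dosing, compound overnight, 37 °C, 5% CO2. Measure: GFP/RFP fluorescence ratio.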
PABP polyA inh: PABP-poly(A) binding inhibition; inhibition, % at 35 µM; PABP-poly(A) RNA binding, fluorescence polarization; 290,000 tested, 1% active; P11940; AID 2014;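 active = 50% or more with normal probe brightness, or confirmed in later tests; inconclusive = above 50% with abnormal brightness, or retests that disagree; inactive = below 50% or failed in later tests; about a fifth of its hits are not listed in these tables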;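 note: calls also rest on retests at 20 µM and on dose response follow-up; controls were probe without protein and protein plus probe with vehicle; some compounds called inactive have numbers as strong as hits; many hits fall short of the cut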
Target sequence (P11940 whole entry, looked up): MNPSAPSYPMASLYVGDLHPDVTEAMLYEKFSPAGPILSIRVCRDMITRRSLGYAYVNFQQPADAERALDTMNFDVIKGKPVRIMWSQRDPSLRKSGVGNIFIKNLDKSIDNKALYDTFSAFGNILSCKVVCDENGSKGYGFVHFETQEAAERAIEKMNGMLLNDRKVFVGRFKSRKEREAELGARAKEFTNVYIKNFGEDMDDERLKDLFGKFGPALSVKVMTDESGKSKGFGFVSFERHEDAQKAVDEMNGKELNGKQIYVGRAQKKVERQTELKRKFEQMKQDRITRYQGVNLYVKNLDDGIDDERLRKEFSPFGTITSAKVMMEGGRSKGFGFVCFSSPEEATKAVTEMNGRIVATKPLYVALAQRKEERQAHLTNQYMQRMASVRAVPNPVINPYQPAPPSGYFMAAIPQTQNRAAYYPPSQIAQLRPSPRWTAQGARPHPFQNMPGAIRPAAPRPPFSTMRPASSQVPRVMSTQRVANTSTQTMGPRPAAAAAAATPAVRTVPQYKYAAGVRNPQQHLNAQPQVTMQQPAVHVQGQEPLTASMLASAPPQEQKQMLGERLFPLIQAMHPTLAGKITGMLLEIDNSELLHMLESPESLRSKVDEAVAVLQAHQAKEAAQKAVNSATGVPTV
eIF4H FP inh: inhibitors of RNA binding by human eIF4H; Q15056; eIF4H fluorescence polarization binding assay; inhibition, % at 35 µM; 290,000 tested, 0.94% active; AID 2012;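 active = 50% or more with normal probe brightness, or confirmed in later tests; inconclusive = above 50% with abnormal brightness, or retests that disagree; inactive = below 50% or failed in later tests; about a fifth of its hits are not listed in these tables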;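 note: calls also rest on retests at 20 µM and on dose response follow-up; 0% = protein and probe with vehicle and 100% = probe without protein; strong numbers were not always called active; many hits fall short of the cut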
HIV Env fusion: HIV envelope-mediated fusion inhibition. inhibition, % at 12.3 µM. 360,000 tested, 1.1% active. HeLa-JRFL Env/CEM21 cell fusion, luciferase. AID 651610;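 active = mean replicate inhibition score of at least 50 and every replicate individually at or above 50; inconclusive = only one of the two criteria met; inactive = mean below 50 and not all replicates reaching 50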;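 note: 0% = plate neutral controls and 100% = maraviroc near 300 nM; one replicate is shown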
Yeast UUG start: yeast start codon fidelity modulation; S. cerevisiae UUG-firefly luciferase reporter, luminescence/redox ratio; 350,000 tested, 0.13% active; activity score, % at 18.7 µM;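 active = replicate mean at a twofold rise or more, about +100% in these data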;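 note: firefly luciferase made from a UUG start codon reports start codon fidelity; reporter light over untreated wells divided by growth signal over untreated wells; some hits fall short of that in this replicate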
CSC inhib: blocks cancer stem cells. cancer stem cell-like cells viability, luminescence. inhibition, % at 7.5 µM. 300,000 tested, 1.1% active. AID 2717;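 active = mean at 75% or more and at least half the replicates too; inconclusive = mean and replicates disagree; tested in HMLE shEcad cells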;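 note: 0% = median of negative and 100% = median of positive control wells; the first replicate is given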
Rce1 inh: blocks yeast Ras-converting enzyme; Q03530; yeast membranes, quenched prenylated peptide cleavage fluorescence; calls only; 290,000 tested, 0.27% active;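 active = fall in fluorescence gain of 50% or more versus controls, with final raw signal at or below 3038400; inconclusive = same 50% fall but final raw signal above 3038400; inactive = fall in fluorescence gain under 50%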;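 note: plate controls were neutral control wells for no effect and wells lacking membranes for full effect; tested at 10 µM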
MT1-MMP act inh RFP: also measured in MT1-MMP act inh; calls as there; RFP signal change, %; measured here: RFP expression control read;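 0 = vehicle wells; hits needed this value within 50% of zero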
* hit, by the source's call; i = inactive; ? = inconclusive; · = no result given.

SMILES	MT1-MMP act inh	MT1-MMP act inh RFP	PABP polyA inh	eIF4H FP inh	HIV Env fusion	Yeast UUG start	CSC inhib	Rce1 inh
COc1ccc(CCNC(=O)c2cc3c(=O)n4ccccc4nc3n(C3CCCCC3)c2=N)cc1OC	3	-6	1	-19	11	2	21	i
CCOc1ccc2nc(NC(=O)CCn3cccc3)sc2c1	2	1	3	-4	-32	-2	14	i
CCNc1nc2c(cnn2C)c(=O)[nH]1	-4	-4	·	·	5	-9	·	·
Cc1ccc(/C=C2\SC(=S)N(CCCC(=O)NC3CCCC3)C2=O)cc1	1	0	-6	2	?	-37	-1	i
CCS(=O)(=O)N1CCN(S(=O)(=O)c2ccc3ccccc3c2)CC1	7	-1	-2	-2	-2	-14	-17	i
COc1cccc(NC(=O)C(OC(=O)c2cnc(C)cn2)c2ccccc2)c1 (stereo not drawn)	5	3	·	·	4	-11	-14	i
COc1ccc2[nH]c3c(=O)n(CCCCC(=O)NCCN4CCCC4)c(=S)[nH]c3c2c1	12	-1	-5	12	·	-22	-19	i
CCC(C)[C@H](N)c1nnc(SCC(=O)Nc2cccc(Cl)c2)o1 (stereo partly drawn)	7	9	46	-3	0	-12	-9	i
CCCC[C@H]1COCCS(=O)(=O)N1Cc1ccccc1F	4	5	9	3	2	-12	10	i
CCN(C[C@H]1N[C@@](Cc2ccccc2)(C(=O)OC)[C@H]2C(=O)N(C)C(=O)[C@@H]12)C(=O)Nc1ccc(Cl)cc1	1	2	·	·	-11	3	·	·
O=C(O)C(c1cccs1)C1(O)CCCCC1 (stereo not drawn)	1	1	·	·	18	-5	·	·
Cc1ccc(S(=O)(=O)NC(=NCc2ccccc2)c2ccc(F)cc2)cc1	-1	4	12	4	19	22	-3	i
COc1ccc(C(C)(C)C)cc1NC(=O)c1ccc2ncsc2c1	-3	-6	6	-2	14	-21	0	i
COCCn1c(SC(C)C(=O)NC2CC2)nnc1-c1cccc(C)c1 (stereo not drawn)	-4	-2	·	·	·	-11	8	i
Cc1ccc(S(=O)(=O)N(CC(=O)N/N=C/c2ccc(F)cc2)c2cccc3cccnc23)cc1	-4	-4	-8	4	·	-1	3	·
Cn1nnnc1SCc1ccc([N+](=O)[O-])cc1	4	5	5	3	-4	·	·	i
Cc1ccc(NS(=O)(=O)c2ccc(C(=O)NCc3ccccn3)cc2)cc1	2	-6	4	-2	·	-15	-11	i
Cc1sc2ncnc(N3CCC(C(=O)N(CC(C)C)c4nc5ccccc5s4)CC3)c2c1C	-6	-12	·	·	16	7	3	i
Cc1ccccc1CSc1nncn1N	-3	0	-14	-12	-46	-15	11	i
COc1ccc(-c2oc3ccccc3c2C(=O)OCc2ccc(O)cc2)cc1	-9	-4	-2	-7	0	-11	59	?
Cc1onc(-c2ccccc2)c1C(=O)Nc1ccc(NC(=O)c2c(-c3ccccc3)noc2C)cc1	0	2	·	·	1	·	3	i
CCC(C)Sc1nnc(NS(=O)(=O)Cc2ccccc2)s1 (stereo not drawn)	-1	-1	4	-8	-16	-13	6	i
CCOC(=O)c1sc(=NC(=O)c2cccc(Br)c2)n(C)c1C	5	7	3	-1	-47	5	-2	i
COc1ccc(CNC(=O)c2ccc3ccccc3n2)cc1	1	-2	4	-5	-14	-8	-8	i
CC(=O)c1ccc(OCCOc2ccc(C#N)cc2)cc1	-6	-10	-11	-1	1	19	-2	i
Further entries:
SMILES	MT1-MMP act inh	MT1-MMP act inh RFP	PABP polyA inh	eIF4H FP inh	HIV Env fusion	Yeast UUG start	CSC inhib	Rce1 inh
Cc1ccc(CNC(=O)NC2CCCCC2)cc1	-3	-3	-3	-1	-17	-14	-10	i
Nc1ncnc2c1cnn2-c1ccccc1	1	2	8	2	·	-8	-1	i
CCOc1cccc(C=NNc2ccc(S(=O)(=O)Nc3ccccc3C(=O)O)cc2[N+](=O)[O-])c1O	7	3	·	·	-5	-14	5	·
Cc1cc(OCCCCOc2ccc(C#N)cc2)ccc1[N+](=O)[O-]	0	2	0	-3	-5	·	18	i
O=C(NCc1ccco1)/C(=C\c1cccs1)NC(=O)c1ccccc1	4	8	12	4	8	·	-8	i
Cc1noc(C)c1-c1ccc(C(=O)N2CCN(C)CC2)c2occc12	2	4	·	·	-4	-6	·	·
Cc1onc(-c2ccccc2)c1C(=O)NCc1cccnc1	2	4	-4	-1	·	-9	-9	i
CCOc1ccc(-n2c(=S)sc3c(=O)[nH]c(SCC(=O)NC4CCCCC4)nc32)cc1	-1	4	·	·	-3	0	·	·
Cc1c(C(=O)O)oc2c1/C(=N\O)CC(C)(C)C2	-3	-1	-5	-3	·	4	-7	i
CCCc1ccc(OCCNC(C)=O)cc1	2	3	·	·	·	·	-7	i
c1ccc(Cn2c(-c3ccccc3)c[n+]3c2SCCC3)cc1	-3	-16	-6	-4	9	-12	0	i
CC1=C(C(=O)N2CCOCC2)C(c2ccsc2)C2=C(CCCC2=O)N1 (stereo not drawn)	3	2	2	-3	-11	-10	2	i
CN(C(=O)c1ccc(S(=O)(=O)NC2CCCC2)cc1)C1CCCCC1	8	-1	-1	-11	4	-24	-4	i
CCC(C)(C)NC(=O)c1sccc1Oc1ccc(F)cc1[N+](=O)[O-]	0	-5	3	11	12	·	-4	i
COc1cc(/C(C)=N/NC(=O)CSc2nncn2C)ccc1OCc1ccccc1Cl	4	3	8	-9	7	·	6	i
COc1ccc(N/N=C(\C=N\O)C(=O)c2ccc(OC)cc2)cc1	-6	-12	6	8	·	·	-5	i
N#CC1(c2ccccc2)CCN(S(=O)(=O)c2ccc(OC(F)(F)F)cc2)CC1	-6	-6	10	-6	4	-12	11	i
N=c1c2ccccc2nc2n1CCCCCCC2	-2	-2	·	·	-15	-4	·	·
O=S1(=O)CC=C(CSc2nc3ccccc3[nH]2)C1	-2	0	-4	2	·	-13	-9	i
COc1ccc2[nH]c3c(c2c1)CCN1C(=O)C(CC(=O)NC(C)(C)C)C[C@H](C(=O)N(C(C)C)C(C)C)[C@@]31C (stereo partly drawn)	3	0	·	·	-14	-13	·	·
O=C(NCc1ccc2c(c1)OCO2)C1CCN(c2ccc(S(=O)(=O)N3CCCC3)cc2)CC1	-9	-13	0	-4	·	5	0	i
COc1ccc2oc(C(=O)N3CCN(C(=O)c4ccco4)CC3)c(C)c2c1	-3	-5	·	·	-4	-1	-12	i
COc1ccc(NC(=O)CSc2nnc3c4c(nc(-c5ccccc5)n23)CC(C)(C)OC4)cc1	8	-9	-4	-5	·	-5	4	i
C=CCn1c(SCc2csc(-c3ccc(C)cc3)n2)nnc1-c1ccccc1OC	2	-8	-1	-4	10	-7	7	i
Cc1cc(=O)oc2cc(OCC(=O)N3CCC(O)CC3)c(Cl)cc12	0	0	-4	6	4	-7	-7	i
New compounds follow
SMILES	MT1-MMP act inh	MT1-MMP act inh RFP	PABP polyA inh	eIF4H FP inh	HIV Env fusion	Yeast UUG start	CSC inhib	Rce1 inh
NC[C@@H]1O[C@H](C23CC4CC(CC(C4)C2)C3)Cc2c1ccc(O)c2O	3	-1	-8	-10	-23	-6	40	i
CN1N=C(c2ccc(F)c(F)c2)CSC1=NCc1ccccc1	2	5	-3	7	-15	·	-1	i
CCC(=O)Nc1c2c(nn1-c1ccc([N+](=O)[O-])cc1)CS(=O)(=O)C2	-6	0	6	6	-4	-8	3	i
CC(C)CC(NC(=O)OC(C)(C)C)c1cn([C@@H](Cc2ccc(O)cc2)C(=O)N2CCN(C(=O)OC(C)(C)C)CC2)nn1 (stereo partly drawn)	5	1	-2	-8	11	22	10	i
COc1ccc(-c2cn(Cc3ccc(C(=O)NCc4ccc(C)cc4)cc3)c(C(C)N)n2)cc1 (stereo not drawn)	2	-5	·	·	-98	-15	2	i
COc1ccc(-c2cc(C(F)(F)F)n3nc(C(=O)Nc4c(C)n(C)n(-c5ccccc5)c4=O)cc3n2)cc1	-3	-5	11	-4	2	·	·	·
CC1CCC2(CC1)NC(=O)N(CC(=O)Nc1ccccc1-c1ccccc1)C2=O (stereo not drawn)	6	-2	?	-3	-6	10	-14	i
O=C(c1ccc(S(=O)(=O)Nc2cccc(C(F)(F)F)c2)cc1)N1CCN(c2ccccc2O)CC1	1	-11	·	·	·	-5	-16	i
CCN(CC)CCCn1c2c(c(SCC(=O)Nc3cc(C)cc(C)c3)nc1=O)CCC2	-2	-4	·	·	-1	11	·	·
CC(C)c1ccc(C(=O)NCCCc2ccccc2)cc1	-2	4	-1	1	-62	-5	9	i
CCCCNC(=S)N(CCO)Cc1cc2cc3c(cc2[nH]c1=O)OCCO3	-1	-1	1	8	-8	-7	-13	i
CCS(=O)(=O)N1CCC2(CC1)OCCN2S(=O)(=O)c1ccccc1	3	6	·	·	1	-27	·	·
COc1ccc(CNC(=O)c2sc(=O)n(Cc3cc(C(C)=O)ccc3OC)c2C)cc1	-5	3	·	·	-36	-5	·	·
O=C(NC(=S)NCCN1CCOCC1)c1ccc(Cl)cc1Cl	0	6	7	-8	·	-20	-2	i
O=C(CN1C(=O)NC2(CCCCC2)C1=O)Nc1ccc(N2CCOCC2)cc1	3	5	4	6	21	·	-10	i
COCCNc1oc(/C=C/c2ccccc2OC)nc1S(=O)(=O)c1ccccc1	-5	-8	·	·	-11	-19	-21	i
CCN1C(=O)/C(=C\C=C\c2ccccc2[N+](=O)[O-])SC1=S	-10	-4	-8	-3	-6	·	·	·
COc1ccc2nc(N)sc2c1	2	0	4	4	-93	-19	·	i
O=C(NC1CCCC1)C(=O)c1c[nH]c2ccccc12	1	4	1	-6	-53	3	4	i
COc1ccc(NC(=O)c2cc(F)cc(F)c2)cc1S(=O)(=O)N1CCCCC1	3	-9	·	·	30	-14	4	·
COc1ccc(-c2cc(-c3cc(F)ccc3O)[nH]n2)cc1OC	12	-2	2	-4	·	-6	18	i
Cc1cc(F)ccc1S(=O)(=O)NCC(c1cccnc1)N1CCc2ccccc21 (stereo not drawn)	-5	-2	-4	-7	13	-16	-8	i
CCCCN(C)CCNC(=S)Nc1ccc2nc(N3CCN(CC)CC3)cc(C)c2c1	2	-5	24	-7	-7	4	32	i
CCOC(=O)c1c(-c2ccc(C)o2)csc1N	-2	3	68*	52*	·	-16	7	i
Cc1ccc(CSc2nnc3ccc(-c4ccncc4)nn23)cc1	-8	-12	-12	-2	15	-21	8	i
Carrying on.
SMILES	MT1-MMP act inh	MT1-MMP act inh RFP	PABP polyA inh	eIF4H FP inh	HIV Env fusion	Yeast UUG start	CSC inhib	Rce1 inh
Cc1nnc(SCc2ccon2)n1-c1ccccc1	1	5	-2	9	·	-2	-18	i
CC(=O)OC(Cn1nc(C)cc1C)c1ccccc1 (stereo not drawn)	-2	3	4	-6	·	-6	-12	i
COc1ccc2oc(C(=O)OCC(=O)N3CC(C)OC(C)C3)c(C)c2c1 (stereo not drawn)	1	0	8	2	-32	-9	-5	i
O=C(Nc1nnc(-c2ccccc2)s1)c1ccc(F)cc1	-3	0	12	-10	-16	-15	-13	i
O=S(=O)(c1ccc(Cl)cc1Cl)n1ccc2cccnc21	6	3	-4	0	6	-16	6	i
Cc1ccccc1Nc1nc(N)nc(CSc2nnc3sc4ccccc4n23)n1	5	2	-8	-12	-96	-16	-18	i
Cc1ccc(C)c(-n2nnnc2SCC(=O)c2c(N)n(C)c(=O)n(C)c2=O)c1	·	·	19	-1	4	·	-11	i
O=S(=O)(O)c1cccc(N=Nc2c(O)ccc3ccccc23)c1	21	2	-18	2	14	27	19	i
O=C(CNc1ccccc1Cl)N/N=C1\CCCc2ccccc21	2	3	-3	-4	10	·	-8	i

High-throughput results deposited in PubChem by several laboratories.

These rows are one share of the data (hit frequency here may not be typical).
